Bioassay records from PubChem BioAssay.
Vaccinia inh: Vaccinia orthopox stage-specific inhibition. 89,000 tested, 0.01% active. AID 1053133. Vaccinia-infected cells, mCherry/Venus stage reporter fluorescence; active compounds read low; some inactives read as strong as hits. activity change (mCherry), % (concentration not given with the values);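 active = mCherry past -33% and 40 or more points under the early reporter, replicates agreeing; inconclusive = past -33% without that gap or agreement; tested in A549 cells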;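 also: scaled between vehicle wells and reference inhibitor wells; 23 nL library stock went into each well; one replicate is shown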
Vaccinia inh Venus: recorded beside Vaccinia inh, whose call it bears; activity change (Venus), %; measured here: Venus reporter, other viral stage;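 negative = less Venus signal; first of two replicates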
* = called active by the depositor; u = inconclusive; x = not tested or not shown. These rows are one share of the data; the hit share may differ from the screen's.

SMILES | Vaccinia inh | Vaccinia inh Venus
O=C(NCc1ccccc1)[C@@]1(CCS(=O)(=O)c2ccccc2)N=C(c2ccc(OCCCO)cc2)O[C@H]1c1ccccc1 | -33 | -18
COc1ccc(CN(C)C[C@@H]2OCCCC[C@H](C)Oc3ccc(NC(=O)Nc4c(C)noc4C)cc3C(=O)N([C@H](C)CO)C[C@@H]2C)cc1 | 7 | 3
Cc1noc(C)c1NC(=O)Nc1ccc2c(c1)C(=O)N([C@@H](C)CO)C[C@H](C)[C@H](CN(C)Cc1ccncc1)O2 | 5 | 0
C/C=C/c1cnc2c(c1)C(=O)N([C@H](C)CO)C[C@H](C)[C@H](CN(C)Cc1cncnc1)O2 | 24 | 7
O=C(C[C@H]1CC[C@@H]2[C@H](COC[C@@H](O)CN2Cc2ccc(F)cc2)O1)NCc1ccncn1 | 13 | 10
C[C@@H]1CCCCO[C@@H](CN(C)C(=O)c2ccccc2)[C@H](C)CN([C@H](C)CO)C(=O)c2cc(NC(=O)Nc3ccc(F)cc3)ccc2O1 | -19 | -14
CCCNC(=O)N1CC2(C1)[C@H](c1ccccc1)[C@H](CO)N2Cc1ccccn1 | 12 | 12
C[C@@H]1CCCCO[C@H](CN(C)S(=O)(=O)c2ccc(Cl)cc2)[C@H](C)CN([C@@H](C)CO)C(=O)c2cc(NS(=O)(=O)c3cn(C)cn3)ccc2O1 | 1 | 4
C[C@H](CO)N1C[C@H](C)[C@@H](CN(C)Cc2cccc(C(=O)O)c2)Oc2ncc(C#CC(C)(C)O)cc2C1=O | 25 | 11
C[C@@H]1CCCCO[C@@H](CN(C)C(=O)NC2CCCCC2)[C@H](C)CN([C@H](C)CO)C(=O)c2cc(NC(=O)c3ccncc3)ccc2O1 | 14 | -3
O=C(N[C@H]1CC[C@H](CCn2cc(Cc3ccccc3)nn2)O[C@@H]1CO)c1ccccn1 | 6 | 5
CCC(=O)N(C)C[C@H]1Oc2ncc(C#CCC(C)C)cc2C(=O)N([C@@H](C)CO)C[C@@H]1C | 3 | -1
C[C@@H]1CN([C@H](C)CO)C(=O)c2cc(NC(=O)Cc3cn(C)c4ccccc34)ccc2O[C@@H]1CN(C)S(=O)(=O)c1ccc(F)cc1 | -8 | 1
Cc1noc(C)c1S(=O)(=O)Nc1ccc2c(c1)CC(=O)N([C@@H](C)CO)C[C@H](C)[C@H](CN(C)C(=O)NC1CCCCC1)O2 | 2 | -6
CNC(=O)C[C@@H]1CC[C@H]2[C@H](COc3ccc(NC(=O)c4ccccc4OC)cc3C(=O)N2C)O1 | 5 | 6
CC(C)CC#Cc1ccc([C@H]2[C@H](CO)N3CCCCN(S(=O)(=O)Cc4ccccc4)C[C@@H]23)cc1 | -30 | -25
CO[C@@H]1CN(C)C(=O)c2ccc(NC(C)=O)cc2OC[C@@H](C)N(CCC(F)(F)F)C[C@H]1C | 3 | 10
O=C(C[C@@H]1C=C[C@@H](NC(=O)CC2CC2)[C@H](CO)O1)NCc1ccc(Cl)cc1 | 18 | 17
O=C(N[C@H]1CC[C@H](CC(=O)N2CCC(Cc3ccccc3)CC2)O[C@H]1CO)c1cnccn1 | -4 | 1
C[C@@H]1CN([C@H](C)CO)C(=O)c2cc(NC(=O)CCCN(C)C)ccc2O[C@@H](C)CCCCO[C@@H]1CN(C)C(=O)NC1CCCCC1 | 6 | 8

Brought forward from above: 2 compounds, followed by the next part.
SMILES | Vaccinia inh | Vaccinia inh Venus
O=C(N[C@H]1CC[C@H](CC(=O)N2CCC(Cc3ccccc3)CC2)O[C@H]1CO)c1cnccn1 | -4 | 1
C[C@@H]1CN([C@H](C)CO)C(=O)c2cc(NC(=O)CCCN(C)C)ccc2O[C@@H](C)CCCCO[C@@H]1CN(C)C(=O)NC1CCCCC1 | 6 | 8
CCCC(=O)Nc1ccc2c(c1)C(=O)N(C)C[C@@H](OC)[C@@H](C)CN(C(=O)CC1CC1)[C@@H](C)CO2 | 13 | 5
CC(C)NC(=O)N[C@H]1CC[C@@H](CCNS(=O)(=O)c2ccc(F)cc2)O[C@H]1CO | 9 | 12
COc1ccc(S(=O)(=O)Nc2cccc3c2O[C@@H](CN(C)C)[C@H](C)CN([C@@H](C)CO)C3=O)cc1 | 2 | 2
Cc1noc(C)c1NC(=O)N1C[C@H](O)COC[C@H]2O[C@H](CC(=O)NCC3CC3)CC[C@@H]21 | 4 | 8
O=C(C[C@H]1C[C@H]2c3cc(NS(=O)(=O)c4ccccc4)ccc3O[C@H]2[C@@H](CO)O1)N1CCCCC1 | 16 | 12
CC(=O)N(C)C[C@H]1[C@@H](c2ccc(-c3ccc(C#N)cc3)cc2)[C@@H](CO)N1C(C)=O | 5 | 9
CN(C)C(=O)C[C@H]1CC[C@H](NC(=O)NC2CCCCC2)[C@@H](CO)O1 | -10 | -7
COC(=O)C[C@@H]1C=C[C@@H](NC(=O)Nc2ccc(C(F)(F)F)cc2)[C@@H](CO)O1 | -2 | 12
C[C@@H]1CN([C@H](C)CO)C(=O)c2c(c3ccccc3n2C)-c2ccccc2CO[C@@H]1CN(C)S(=O)(=O)c1ccccc1F | u | x
C[C@H](CO)N1C[C@H](C)[C@@H](CN(C)Cc2ccccc2)OCCCC[C@H](C)Oc2ccc(NC(=O)Nc3ccccc3)cc2C1=O | u | x
CN(C)CC#Cc1ccc([C@@H]2[C@H](CO)N3CCCCN(S(=O)(=O)c4ccccc4F)C[C@@H]23)cc1 | -24 | -15
C[C@@H]1CN([C@@H](C)CO)C(=O)c2cc(NS(=O)(=O)c3cccs3)ccc2O[C@H]1CN(C)Cc1ccc(-c2ccccc2)cc1 | -28 | -26
O=C(Nc1ccc(F)cc1)N1CC(=O)N2[C@H](CO)[C@@H](c3ccc(C#Cc4ccc(F)cc4)cc3)[C@@H]2C1 | u | x
C[C@@H]1CN([C@H](C)CO)C(=O)c2cc(NC(=O)Nc3ccc4c(c3)OCO4)ccc2O[C@@H]1CN(C)S(C)(=O)=O | 15 | 4
COc1ccc(CN(C)C[C@@H]2Oc3ccc(NC(=O)Nc4c(C)noc4C)cc3CC(=O)N([C@H](C)CO)C[C@@H]2C)cc1 | 38 | 14
O=C(N[C@H]1CC[C@H](CCNC(=O)C2CCC2)O[C@H]1CO)c1ccccn1 | 15 | 11
CCC(=O)N1[C@@H]2Cn3c(ccc(C4=CCCC4)c3=O)[C@H]1[C@@H](C(=O)N[C@H](C)c1ccccc1)[C@@H]2CO | -12 | -7
COc1ccc(NC(=O)N(C)C[C@H]2Oc3ccc(NC(=O)CCN4CCOCC4)cc3C(=O)N([C@@H](C)CO)C[C@H]2C)cc1 | 3 | 6
C[C@@H]1CCCCO[C@@H](CN(C)S(C)(=O)=O)[C@@H](C)CN([C@H](C)CO)C(=O)c2cc(NC(=O)c3ccncc3)ccc2O1 | 11 | 8
COc1ccccc1-c1ccc2c(c1)O[C@@H](CN(C)S(=O)(=O)c1ccccc1)[C@H](C)CN([C@H](C)CO)S2(=O)=O | u | x
O=C(C[C@@H]1CC[C@H]2[C@@H](COC[C@H](O)CN2CC2CCOCC2)O1)NCc1ccc(Cl)cc1 | 4 | 0
CCCNC(=O)Nc1ccc2c(c1)OC[C@H](C)N(C(=O)C1CC1)C[C@H](C)[C@@H](OC)CN(C)C2=O | -26 | -20
O=C(C1CCCC1)N1[C@H](CO)[C@@H]2c3ccccc3NC[C@@H]21 | 3 | -3
C[C@@H]1CN([C@H](C)CO)C(=O)c2c(c3ccccc3n2C)-c2ccccc2CO[C@@H]1CN(C)C(=O)Nc1cccc(F)c1 | u | x
CN(C)C(=O)c1ccc(-c2ccc([C@@H]3[C@@H](C#N)N(C(=O)C4CCCCC4)[C@H]3CO)cc2)cc1 | -27 | -14
COc1ccc(S(=O)(=O)Nc2ccc3c(c2)CC(=O)N([C@@H](C)CO)C[C@H](C)[C@@H](CN(C)Cc2ccc(C(=O)O)cc2)O3)cc1 | 1 | 13
O=C(C[C@@H]1CC[C@@H](NC(=O)c2ccccc2)[C@H](CO)O1)NCc1ccncn1 | 7 | 7
CO[C@@H]1CN(C)C(=O)c2ccc(NS(=O)(=O)c3cccc(Cl)c3)cc2OC[C@H](C)NC[C@@H]1C | 9 | 16
COC(=O)C[C@H]1CC[C@@H]2[C@H](COC[C@H](O)CN2C(=O)Nc2ccccc2OC)O1 | 3 | -2
COC(=O)C[C@H]1CC[C@@H](NC(=O)c2ccccc2)[C@@H](CO)O1 | 10 | 19
CCNC(=O)C[C@H]1CC[C@@H]2[C@@H](COc3ccc(NC(C)=O)cc3C(=O)N2C)O1 | -10 | -19
Cc1noc(C)c1NC(=O)Nc1ccc2c(c1)CC(=O)N([C@H](C)CO)C[C@H](C)[C@@H](CN(C)C(=O)Nc1ccc3c(c1)OCO3)O2 | 3 | -1
C[C@H](NC(=O)C[C@@H]1C[C@H]2c3cc(NC(=O)NC4CCCCC4)ccc3O[C@H]2[C@H](CO)O1)c1ccccc1 | 4 | 14
C[C@H](CO)N1C[C@H](C)[C@H](CN(C)Cc2ccncc2)OCCCC[C@H](C)Oc2ccc(NS(=O)(=O)c3ccccc3)cc2C1=O | -8 | -18
C[C@@H]1CN([C@H](C)CO)C(=O)c2cc(Br)cnc2O[C@@H]1CN(C)C(=O)NC1CCCC1 | 18 | 7
Cc1noc(C)c1S(=O)(=O)N(C)C[C@H]1OCCCC[C@H](C)Oc2ccc(N(C)C)cc2C(=O)N([C@@H](C)CO)C[C@@H]1C | 0 | -2
COC(=O)c1c2oc(c1C(=O)OC)C(=O)N[C@@H](Cc1ccccc1)Cn1cc(nn1)[C@@H](Cc1ccccc1)NC(=O)N[C@@H](CO)CC2 | 11 | -3
C[C@@H]1CN([C@@H](C)CO)C(=O)Cc2cc(NC(=O)CCCCCC(=O)Nc3ccccc3N)ccc2O[C@@H]1CN(C)C(=O)Nc1ccccc1 | 20 | 25
C[C@@H]1CCCCO[C@@H](CN(C)Cc2ccccc2)[C@@H](C)CN([C@H](C)CO)C(=O)c2cc(NC(=O)C3CCCCC3)ccc2O1 | -2 | -8
Cc1ccc(-c2ccc3c(c2)O[C@H](CN(C)C(=O)Nc2ccc(C(F)(F)F)cc2)[C@H](C)CN([C@@H](C)CO)S3(=O)=O)cc1 | u | x

Not a retest: an excerpt of the list.
SMILES | Vaccinia inh | Vaccinia inh Venus
O=C(C[C@H]1CC[C@@H]2[C@H](COC[C@@H](O)CN2Cc2ccc(F)cc2)O1)NCc1ccncn1 | 13 | 10
C[C@@H]1CCCCO[C@@H](CN(C)C(=O)c2ccccc2)[C@H](C)CN([C@H](C)CO)C(=O)c2cc(NC(=O)Nc3ccc(F)cc3)ccc2O1 | -19 | -14
CCCNC(=O)N1CC2(C1)[C@H](c1ccccc1)[C@H](CO)N2Cc1ccccn1 | 12 | 12
C[C@@H]1CCCCO[C@H](CN(C)S(=O)(=O)c2ccc(Cl)cc2)[C@H](C)CN([C@@H](C)CO)C(=O)c2cc(NS(=O)(=O)c3cn(C)cn3)ccc2O1 | 1 | 4

Later entries.
SMILES | Vaccinia inh | Vaccinia inh Venus
C[C@H](CO)N1C[C@H](C)[C@H](CN(C)Cc2ccc(C(=O)Nc3ccccc3N)cc2)Oc2ccc(NC(=O)Cc3cn(C)c4ccccc34)cc2C1=O | 11 | 11
O=C(C[C@H]1CC[C@H]2[C@@H](COC[C@@H](O)CN2CCc2ccccc2)O1)NCCCN1CCOCC1 | 10 | 10
CC(C)C#Cc1cnc2c(c1)C(=O)N([C@@H](C)CO)C[C@H](C)[C@@H](CN(C)C(=O)Nc1cccc(F)c1)O2 | 6 | 7
O=C(C[C@H]1C=C[C@@H](NS(=O)(=O)c2ccc(F)cc2)[C@H](CO)O1)NC1CCCCC1 | -1 | 6
COc1ccc(CN(C)C[C@@H]2Oc3ccc(NC(=O)c4ccncc4)cc3C(=O)N([C@@H](C)CO)C[C@@H]2C)cc1 | 10 | -3
C[C@@H]1CN([C@H](C)CO)C(=O)c2cc(NS(=O)(=O)c3ccc(F)cc3)ccc2O[C@@H]1CN(C)Cc1ccc(C(=O)O)cc1 | 13 | 6
C[C@H](CO)N1C[C@H](C)[C@H](CN(C)C(=O)Cc2ccccc2)Oc2cc(C#CC3CCCC3)ccc2S1(=O)=O | u | x
C[C@H](CO)N1C[C@H](C)[C@@H](CN(C)C)Oc2ccc(NC(=O)Cn3cnnn3)cc2C1=O | 9 | 2
C[C@@H]1CN([C@H](C)CO)S(=O)(=O)c2ccc(/C=C/c3ccccc3)cc2O[C@@H]1CN(C)Cc1ccccc1 | -27 | -22
CC(C)C#Cc1cnc2c(c1)C(=O)N([C@H](C)CO)C[C@@H](C)[C@H](CN(C)S(=O)(=O)c1cn(C)cn1)O2 | 23 | 9
CN1[C@@H]2c3ccc(C4=CCCCC4)c(=O)n3C[C@H]1[C@H](CO)[C@H]2C(=O)N1CCCCC1 | 21 | 11
C[C@@H]1CCCCO[C@@H](CN(C)C(=O)C2CCCCC2)[C@@H](C)CN([C@H](C)CO)C(=O)c2cc(NC(=O)Nc3cccc4ccccc34)ccc2O1 | 12 | 8
CO[C@@H]1CN(C)C(=O)c2cc(NC(=O)C3CCOCC3)ccc2OC[C@@H](C)NC[C@@H]1C | -2 | -4
CC(C)NC(=O)Nc1ccc2c(c1)C(=O)N([C@@H](C)CO)C[C@H](C)[C@H](CN(C)C(=O)NC1CCCCC1)OCCCC[C@H](C)O2 | 6 | -7
CO[C@H]1CN(C)C(=O)c2cc(NS(C)(=O)=O)ccc2OC[C@H](C)N(C(=O)CC2CC2)C[C@H]1C | 2 | 1
O=C(C1CCOCC1)N1CC(=O)N2[C@H](C1)[C@@H](c1ccc(-c3ccccc3F)cc1)[C@@H]2CO | 7 | -3
